gsp ag – gsp mutant agonism; gsp mutant cells, cAMP HTRF, 30 min; control for the full effect not named in the record; Potency, µM (top dose mostly 76.9 µM), without a hit: top-dose activation (cAMP increase), usual class: activators; 0.13% of 340,000 active; active = well fitted activation curve with a large enough effect; inconclusive = small, poorly fitted or top-dose-only effect, or another doubt; inactive = no such curve, though single readings can be large or run the other way; cell line not stated here;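 note: phosphodiesterase inhibitor Ro 20-1724 added with compounds to block cAMP breakdown; potency is the fitted concentration of half-maximal effect; nearly all actives have a fitted effect of over 60% in size; about a fifth of the inactives were tested at one dose only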
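Cells in DMEM/10% FBS with G418 were pretreated with compounds in DMSO plus […] (300 uM stock) for 30 min at 37C. cAMP was measured by HTRF (cAMP-d2 plus anti-cAMP antibody-K) after 30 min at room temperature.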
gsp antag – gsp mutant antagonism; gsp-mutant cells, cAMP HTRF, 30 min; control for the full effect not named in the record; Potency, µM (series often up to 76.9 µM), for the others: at the top dose activity change, negative = inhibition, usual class: inhibitors; 0.4% of 340,000 active; AID 624288; active = falling curve of any shape with a large fitted effect; inconclusive = falling curve, mostly with a smaller effect; inactive = flat or rising curve; cell line not stated here;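 note: intracellular cAMP measured with PDE inhibitor Ro 20-1724 present during compound exposure; potency is the fitted concentration of half-maximal effect; % is set by controls: 0 for no effect and ±100 for the full control effect; nearly all actives have a fitted effect of over 65% in size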
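Measurement of cellular cAMP by homogeneous time-resolved fluorescence following a 30 min compound exposure at 37C. The PDE inhibitor […] was present throughout; the assay buffer was DPBS with 0.05% BSA and 0.005% Tween 20.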
CtBP-E1A inh – blocks the CtBP interaction with E1A | AlphaScreen GST-E1A/His-CtBP binding, 1536-well; active compounds read low; control for the full effect not named in the record | 0.49% of 340,000 active | activity change, % (concentration not given with the values); in the data active means activity change below about -65%; inconclusive means about -30% to -65%; inactive means above about -30%; note: % is set by controls: 0 for no effect and ±100 for the full control effect
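GST-E1A and His-tagged CtBP (125 nM each as 5X stock) were preincubated with pin-transferred compound for 2 h at 37 °C in the dark, then glutathione donor and nickel acceptor beads were added for 1 h before AlphaScreen reading.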
D2 agonist – activates the human D2 dopamine receptor. activation, % (concentration not given with the values). 0.084% of 360,000 active. P14416. DiscoveRx PathHunter D2 beta-arrestin, luminescence, 90 min; 100% = 57 uM dopamine signal; in the data active = activation above about 40%; inconclusive = about 15% to 40%; inactive = below about 15%; note: compound concentration not given in the record; the text of the record calls up to 30% inactive
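DiscoveRx PathHunter D2 beta-arrestin cells (2,100/well) attached overnight, then compound-stimulated 90 min at 37 C in HBSS/10 mM HEPES/0.1% Tween-20 buffer; beta-galactosidase complementation read by luminescence after 1 h at ambient temperature. Dopamine 57 uM final (EC100) as control.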
D2 PAM – positive allosteric modulators of human D2 dopamine receptor | 0.23% of 360,000 active | P14416 | AID 624464 | potentiation, % (test concentration not listed) | DiscoveRx D2 beta-arrestin cells, luminescence, 90 min; 100% = 57 uM dopamine signal; active = potentiation of 50% or more; inconclusive = 30% to 50%; inactive = 30% or less;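 note: compound concentration not given in the record; tested on top of an EC20 dose of dopamine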
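D2 cells co-treated with compound plus 50 nM dopamine (EC20) for 90 min at 37 deg C to detect potentiation. Beta-arrestin recruitment was read as enzyme-fragment luminescence after 1 h at ambient temperature. Full response was set by 57 uM dopamine.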
Six1-Eya2 blk – blocks human Six1 binding to Eya2 | activity change, % (test concentration not listed) | AID 651725 | AlphaScreen GST-Six1/His-Eya2 binding, biochemical; active compounds read low; control for the full effect not named in the record | Q15475+O00167 | 0.56% of 360,000 active; in the data active = activity change below about -65%; inconclusive = about -30% to -65%; inactive = above about -30%; note: % is set by controls: 0 for no effect and ±100 for the full control effect
Target sequence (O00167 whole entry, looked up): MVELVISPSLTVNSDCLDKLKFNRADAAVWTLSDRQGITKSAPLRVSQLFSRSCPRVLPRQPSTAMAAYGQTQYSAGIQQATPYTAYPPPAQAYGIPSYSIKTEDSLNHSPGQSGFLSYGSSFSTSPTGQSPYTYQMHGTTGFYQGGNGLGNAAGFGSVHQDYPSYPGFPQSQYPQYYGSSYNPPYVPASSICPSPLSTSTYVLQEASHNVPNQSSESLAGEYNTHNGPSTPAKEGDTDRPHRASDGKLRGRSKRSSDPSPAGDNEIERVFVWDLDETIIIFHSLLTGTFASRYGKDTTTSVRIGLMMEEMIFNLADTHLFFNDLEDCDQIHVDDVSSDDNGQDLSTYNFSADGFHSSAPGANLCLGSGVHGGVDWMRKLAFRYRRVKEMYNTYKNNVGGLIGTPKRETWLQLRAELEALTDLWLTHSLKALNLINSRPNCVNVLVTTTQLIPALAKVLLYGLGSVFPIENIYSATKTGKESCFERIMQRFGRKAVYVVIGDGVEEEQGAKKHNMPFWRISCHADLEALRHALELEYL
Target sequence (Q15475 whole entry, looked up): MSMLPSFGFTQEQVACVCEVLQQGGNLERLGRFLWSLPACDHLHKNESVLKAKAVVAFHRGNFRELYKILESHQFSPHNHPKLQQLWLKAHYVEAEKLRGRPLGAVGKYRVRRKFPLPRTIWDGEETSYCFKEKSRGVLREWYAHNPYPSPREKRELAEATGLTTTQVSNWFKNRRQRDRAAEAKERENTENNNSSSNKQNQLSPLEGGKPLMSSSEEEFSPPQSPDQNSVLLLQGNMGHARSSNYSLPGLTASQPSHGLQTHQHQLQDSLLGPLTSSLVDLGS
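Homogeneous AlphaScreen proximity assay pairing GST-Six1 with His-tagged Eya2 (added as 5X mix: 250 nM and 500 nM) in 50 mM Tris pH 8.0, 300 mM NaCl, 1 mM TCEP. Glutathione donor and nickel acceptor beads; 1 h, 37 °C, dark.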
The depositor's hits bear a star; ? = inconclusive; / = not tested or not shown; [ ] = remark or other dose. Random draw from the library; any-hit rate near 1.4%.

SMILES	gsp ag	gsp antag	CtBP-E1A inh	D2 agonist	D2 PAM	Six1-Eya2 blk
COc1ccc(C(=O)Nc2ccc3nc4n(c(=O)c3c2)CCCCC4)cc1OC	10.2%	/	-0.1	0.8	-1.7	1.6
O=c1cc(-c2ccccc2)c2cc(Cl)ccc2[nH]1	-1.3%	-5.2%	6.3	-1.6	-4.2	0.2
CCC(C(=O)NCc1ccc(C)o1)n1nc(C)c2c(C)n(-c3ccccc3)nc2c1=O (stereo not drawn)	3.7%	-17.3%	-16.6	-5.1	-13.4	-0.9
COc1ccc(CNC(=O)c2c([S-])n(-c3ccc(C)cc3)c3cccc[n+]23)cc1	-0.8%[15.4 µM]	-13.4%	-10.9	-4.2	-18.7	0.4
O=C1C(Cl)=C(N2CCCCC2)C(=O)C(Cl)=C1c1cnc(N2CCCCC2)s1	-44.1%[inhibitor]	17.6%	-1.6	3.2	26.7	-7.6
Cc1onc(-c2c(F)cccc2Cl)c1C(=O)NC(C)c1ccccc1 (stereo not drawn)	9.7%[15.4 µM]	-10.2%	3.6	-0.7	-5.0	3.8
N#Cc1c(NC(=O)CSc2ncccn2)oc(-c2ccccc2)c1-c1ccccc1	13.3%	-16.1%	23.7	-1.8	18.1	-0.4
Fc1ccc2nc(Nc3nc4cc5c(cc4s3)OCO5)sc2c1	?	10.3%	17.5	-2.1	-10.2	2.6
O=C(Nc1ccccc1)N(Cc1ccc(Cl)cc1)CC(O)C(F)(F)F (stereo not drawn)	11.7%	2.0%	4.0	2.2	-1.7	6.4
CCCNC(=O)C/C(C)=N/NC(=O)C(=O)Nc1ccccn1	-6.9%	-1.1%	0.0	-0.5	-8.8	-1.5
Cc1ccc(C(=O)OCC(=O)NCCNC(=O)COC(=O)c2ccc(C)o2)o1	-25.3%	9.8%	-18.6	1.2	1.5	8.2
CC(C)(C)C(=O)CN1C(=O)NC2(CCc3ccccc32)C1=O (stereo not drawn)	-16.2%	10.7%	3.2	-1.3	-12.1	2.8
CCN(CC)C(=O)CN(c1ccc(F)c(Cl)c1)S(C)(=O)=O	-9.3%	-7.2%	-0.1	4.8	3.2	14.4
CCN(CC)CCN1C(=O)C(=O)/C(=C(/O)c2c(C)[nH]c(C(=O)OC)c2C)C1c1ccccc1OC (stereo not drawn)	?	6.8%	6.7	-1.6	-24.1	-8.4
Cc1cccc(NC(=O)C(=O)NCC2CCCN2S(=O)(=O)c2cccs2)c1C (stereo not drawn)	?	-4.3%	-5.1	-1.0	?	-1.9
O=C(CSc1nc2ccccc2[nH]1)Nc1cccc(S(=O)(=O)N2CCOCC2)c1	-0.1%	-20.2%	-25.0	-2.0	-14.9	-14.1
O=C(O)CSc1nnc(COc2cccc3cccnc23)n1-c1ccc(Cl)cc1	-0.8%[15.4 µM]	10.1%	-21.3	3.5	-6.0	0.7
CN(C)S(=O)(=O)c1ccc(N2CCCC2)c(C(=O)NCCc2ccc(F)cc2)c1	3.3%[15.4 µM]	-4.6%	-3.8	-2.7	2.7	6.2
CN1C(=O)N(C)C2(c3ccccc3)Nn3c(s/c(=C/c4ccccc4)c3=O)=NC12c1ccccc1 (stereo not drawn)	5.7%	-13.1%	-7.2	-1.0	-4.1	4.4
Cc1ccc(C2N(C)c3ccccc3-c3nc4ccccc4n32)o1 (stereo not drawn)	-4.7%	-25.0%	18.7	-2.8	-6.4	7.3
O=C(CN1CCCCC1CO)c1ccc(OC(F)F)cc1 (stereo not drawn)	3.1%	5.0%	-18.1	1.6	-5.2	8.7
Nc1c(C(=O)N2CCCC2)sc2nc(-c3ccccc3)ccc12	?	1.4%	16.0	4.0	-4.8	6.1
COc1ccc(C2CC2C(=O)c2ccccn2)cc1 (stereo not drawn)	-6.0%	-7.3%	15.8	5.1	0.6	11.9
CCOc1cc(S(=O)(=O)N(CC)CC)ccc1Br	-28.2%	3.7%	8.7	0.0	-4.0	24.2
CC(Oc1ccccc1)C(=O)N1CCN=C1SCc1ccccc1F (stereo not drawn)	-15.0%[15.4 µM]	-15.6%	20.5	-1.3	-3.0	2.9
COc1ccc(Cl)cc1C(=O)Nn1c(C)nc2ccccc2c1=O	-40.2%[inhibitor]	3.5%	-4.8	0.1	2.9	-3.0
CCN(CC(=O)c1c(N)n(C)c(=O)n(C)c1=O)c1cccc2ccccc12	29.2%	2.1%	-3.5	2.2	9.6	-17.4
Cc1onc(-c2ccccc2)c1C(=O)N(C)CC(=O)Nc1ccc(F)c(F)c1F	-51.2%[inhibitor]	-1.3%	/	1.5	-0.9	-3.9
FC(F)(F)c1ccccc1CN1CCN(C2CCCCCC2)CC1	14.6%	-23.3%	/	-1.5	-15.8	-16.7
CN(CC(=O)Nc1cccc(F)c1)CC(=O)NC(c1ccccc1)c1ccccc1	-35.5%[inhibitor]	-7.0%	-0.3	-1.3	-4.8	-3.9
CC1CN(C(=S)Nc2ccc(F)cc2F)CC(C)O1 (stereo not drawn)	-19.1%	-0.1%	3.5	1.9	-1.3	-2.5
C=CCN1C(=O)c2ccc(C(=O)NCCOc3ccccc3F)cc2C1=O	1.8%	8.9%	3.5	-1.1	1.9	-0.4
Cc1cccc(C2=NN(c3ccccc3)[C@@H](C(=O)N3CCOC3=O)[C@@H]2C)c1	/	-26.2%	27.1	-0.7	/	26.5
CCOc1ccc(/C(O)=C2\C(=O)C(=O)N(c3ccccn3)C2c2ccccc2F)c(C)c1 (stereo not drawn)	?	/	3.9	-2.4	-7.6	-4.3
O=C(COc1ccc(Cl)cc1)NCCNc1ccc([N+](=O)[O-])cc1	1.8%	-3.3%	/	-6.2	-9.1	-9.8
CN(Cc1nc(-c2cccc(Cl)c2)no1)C1CCOCC1	-10.2%	10.5%	/	0.9	-9.8	1.7

No new results follow: entries from further up.
SMILES	gsp ag	gsp antag	CtBP-E1A inh	D2 agonist	D2 PAM	Six1-Eya2 blk
CC(Oc1ccccc1)C(=O)N1CCN=C1SCc1ccccc1F (stereo not drawn)	-15.0%[15.4 µM]	-15.6%	20.5	-1.3	-3.0	2.9
COc1ccc(Cl)cc1C(=O)Nn1c(C)nc2ccccc2c1=O	-40.2%[inhibitor]	3.5%	-4.8	0.1	2.9	-3.0

Following part
SMILES	gsp ag	gsp antag	CtBP-E1A inh	D2 agonist	D2 PAM	Six1-Eya2 blk
O=C(NCCN1CCOCC1)c1cc([N+](=O)[O-])ccc1Cl	-4.5%[15.4 µM]	8.3%	6.9	6.4	-2.9	-0.5
COCCn1c(C(C)C)nc2oc3ccccc3c(=O)c2c1=O	?	1.3%	14.5	-3.8	-5.8	8.3
Cc1c(NC(=O)Nc2ccccc2[N+](=O)[O-])c(=O)n(-c2ccccc2)n1C	?	15.5%	7.4	2.9	-7.8	6.1
COc1ccc(C)cc1NC(=O)CNC(C)C(=O)Nc1ccc(C(C)=O)cc1 (stereo not drawn)	-3.4%	-4.6%	2.9	1.5	0.3	2.7
CN1CCCC(C)(C(=O)Nc2ccc(-n3cccc3)cc2)C1 (stereo not drawn)	/	/	-9.7	-2.7	-4.7	-12.5
Cc1ccc(C(=O)NCC(c2ccco2)N2CCc3ccccc3C2)cc1C (stereo not drawn)	-56.8%[inhibitor]	-7.7%	-0.7	-3.0	-12.3	-9.6
Clc1nc(CN2CCCCC2)nc2sc3c(c12)CCCC3	11.8%	-1.7%	/	-3.2	-10.0	-0.7
CCC(=O)OCn1nnc2ccccc2c1=O	7.1%[15.4 µM]	25.6%	-0.9	0.2	-16.2	9.9
O=C1CC(c2ccco2)CC(O)=C1C=NCCN1CCN(C(=O)Nc2ccc(Cl)cc2)CC1 (stereo not drawn)	-8.3%	-5.4%	-10.5	-0.4	-1.7	-9.0
Clc1nnc(Cl)c2c1ncn2Cc1ccccc1	19.0%	2.6%	/	-4.0	-9.6	6.3
COc1ccccc1NC(=O)CC(=O)CSc1nnc(-c2ccc(C)cc2)n1-c1ccccc1	-46.1%	-3.1%	0.2	-1.4	-22.3	-0.8
CSCCC(NC(=O)c1ccc(Cl)cc1Cl)C(=O)N1CCN(C(=O)c2ccccc2)CC1 (stereo not drawn)	15.0%	-11.5%	5.1	10.9	-4.4	3.7
CC(=O)Nc1ccc(S(=O)(=O)NC2CC(=O)N(c3ccc4c(c3)OCCO4)C2)cc1 (stereo not drawn)	-18.7%[15.4 µM]	7.4%	0.3	-1.0	0.1	-1.0
CCc1nnc(SCC(=O)Nc2nccs2)n1CC	-7.2%	4.0%	-3.5	-2.6	-23.4	1.1
O=C(Nc1ccccc1C(=O)Nc1ccncc1)c1ccccc1	20.3%	-10.0%	1.8	2.6	-10.5	-4.7
Oc1cccc(Nc2c3ccccc3nc3ccccc23)c1	-47.7%[inhibitor]	-19.0%	/	3.2	-33.4	-11.6
C[C@H](CO)N1C[C@H](C)[C@@H](CN(C)CC2CCCCC2)Oc2c(NC(=O)Cc3ccccc3)cccc2C1=O	/	?	-7.4	-5.9	-4.3	-8.6
Cc1ccc2[nH]c(=O)c(CN(CCCN(C)C)C(=S)NCCc3ccccc3)cc2c1	19.6%[15.4 µM]	-25.0%	-14.2	-2.9	-14.0	-0.4
O=C(O)c1cccc(NC(=S)N/N=C/c2cccc(O)c2)c1	17.3%[15.4 µM]	-6.1%	-6.8	-5.5	-1.9	-0.5
CC(C)(C)S(=O)N1Cc2cc(C(=O)NCC(F)(F)F)nc(-c3cccc(-c4cccc(F)c4)c3)c2[C@@H]1CCO (stereo partly drawn)	/	/	-10.4	?	?	-5.6
COc1ccc(C(=O)NCCCc2ccccc2)cc1OC	?	11.2%	3.1	3.3	-7.4	4.8
COC(C(=O)Nc1ccnn1C1CCN(Cc2cccc(C)n2)CC1)c1ccccc1 (stereo not drawn)	-7.7%	6.6%	/	1.2	-4.1	23.8
COc1cccc(C(=O)Nc2nnc(Cc3ccc(OC)c(OC)c3)s2)c1	?	-0.1%	4.3	2.9	-9.5	0.5
CN(Cc1nc(-c2cnccn2)no1)C1CC(C)(C)NC(C)(C)C1	-0.5%[15.4 µM]	-28.4%	0.0	-5.7	-1.4	29.0
O=C(COC(=O)c1ccccc1OCc1ccc(Cl)cc1)NC1CC1	-32.5%[inhibitor]	0.0%	1.7	-3.8	-16.4	2.7
CCCNC(=O)C1(C)CCCN(C(=O)c2oc3ccccc3c2C)C1 (stereo not drawn)	/	/	-3.3	-4.4	-10.0	0.0
O=c1[nH]c(=O)n(Cc2ccccc2)c2nc(-c3ccc(C(F)(F)F)cc3)n(CCO)c12	-18.5%[15.4 µM]	-9.4%	5.7	-2.4	-1.2	-9.4
O=c1[nH]n(-c2ccccc2)c(=O)c2ccccc12	29.2%	-1.8%	0.8	-4.6	-3.6	8.2
O=[N+]([O-])c1cccc(-c2cn3nc(-c4ccccc4)c(-c4ccccc4)nc3n2)c1	13.7%	1.6%	/	4.5	-1.1	6.9
CC(C)NC(=O)Cn1cc(C(=O)C2CC2)c2ccccc21	-3.9%	40.9%[activator]	/	0.4	-9.4	-11.6
c1ccc(Oc2cccc(Oc3ccccc3)n2)cc1	5.2%[15.4 µM]	-8.9%	-1.7	-11.0	-4.2	53.3
Cc1ccc(-c2c(C(=O)N/N=C/c3ccsc3)nnn2-c2nonc2N)cc1	-4.3%	?	0.7	-4.0	-0.6	-1.2

Compound activity from PubChem BioAssay.
